# Source: PubChem
# UUG fidelity: modulators of yeast start codon fidelity, primary screen, whole organism, S. cerevisiae, single point, plate reader. S. cerevisiae UUG-firefly luciferase reporter, luminescence/redox ratio. activity score, % at 18.7 µM. 350,000 compounds, 0.13% hits. AID 602363, 2012;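 active = replicate mean at a twofold rise or more, about +100% in these data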;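 also: firefly luciferase made from a UUG start codon reports start codon fidelity; reporter light over untreated wells divided by growth signal over untreated wells; some hits fall short of that in this replicate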
# * hit, by the source's call. Some of the compounds tested. The share of hits here may be higher or lower than overall.
UUG fidelity | Molecule
-1 | C/C=C/c1ccc([C@@H]2[C@@H](CO)N(C(=O)CC)[C@H]2CNC(=O)CC2CC2)cc1
2 | C[C@H](CO)N1C[C@H](C)[C@H](CN(C)Cc2ccc(Cl)c(Cl)c2)Oc2c(NC(=O)Nc3ccc4c(c3)OCO4)cccc2C1=O
-3 | O=S(=O)(Cc1ccccc1)N1CCCCN2[C@@H](CO)[C@@H](c3ccc(-c4ccccc4)cc3)[C@@H]2C1
-2 | Cc1cccc(S(=O)(=O)N2CCCCN3[C@H](CO)[C@@H](c4ccc(-c5ccccc5)cc4)[C@@H]3C2)c1
-3 | C[C@@H]1CN([C@H](C)CO)C(=O)c2cccc(NC(=O)c3ccc(-c4nccs4)cc3)c2O[C@H]1CN(C)Cc1ccc2c(c1)OCO2
-11 | CCC(=O)N1CC[C@@H]2[C@H](CO)Nc3ccc(-c4ccccc4)cc3[C@@H]21
20 | C[C@H]1CN([C@@H](C)CO)C(=O)Cc2cc(NC(=O)Nc3ccccc3)ccc2O[C@@H]1CN(C)S(=O)(=O)c1ccc(Cl)cc1
8 | CCC(=O)N1C[C@H](C)[C@@H](OC)CN(C)C(=O)c2ccc(NC(=O)Nc3cccc(F)c3)cc2OC[C@H]1C
-2 | CO[C@H]1CN(C)C(=O)c2ccc(NC(=O)Nc3ccccc3)cc2OC[C@@H](C)N(C(=O)CN(C)C)C[C@H]1C
-6 | COCC(=O)Nc1ccc2c(c1)C(=O)N(C)C[C@H](OC)[C@@H](C)CN(C(=O)c1ccncc1)[C@H](C)CO2
-9 | O=C(C[C@@H]1CC[C@H]2[C@@H](COC[C@H](O)CN2Cc2ccncc2)O1)NCc1ccncc1
9 | CNC[C@@H]1Oc2ccc(NS(=O)(=O)c3ccc(Cl)cc3)cc2C(=O)N([C@@H](C)CO)C[C@H]1C
13 | O=C(C[C@@H]1CC[C@@H]2[C@H](COC[C@H](O)CN2S(=O)(=O)c2ccc(Cl)cc2)O1)N[C@@H]1CCN(Cc2ccccc2)C1
0 | Cc1noc(C)c1NC(=O)N(C)C[C@H]1Oc2c(NC(=O)c3ccc(-c4nccs4)cc3)cccc2C(=O)N([C@H](C)CO)C[C@H]1C
-19 | C[C@H](CO)N1C[C@H](C)[C@@H](CN(C)Cc2ccncc2)Oc2c(NC(=O)Nc3ccccc3)cccc2C1=O
-2 | C[C@H](CO)N1C[C@H](C)[C@@H](CN(C)C(=O)CCCN(C)C)OCc2cnnn2CCCC1=O
6 | CCCC#Cc1ccc([C@@H]2[C@@H](CO)N3CCCCN(Cc4ccncc4)C[C@@H]23)cc1
2 | C[C@H]1CN([C@@H](C)CO)C(=O)c2cc(NC(=O)C3CCCCC3)ccc2O[C@H]1CN(C)Cc1ccc(C(=O)O)cc1
-10 | C[C@H](CO)N1C[C@H](C)[C@H](CN(C)C)Oc2c(NC(=O)Nc3ccc4c(c3)OCO4)cccc2C1=O
0 | COc1ccc(NC(=O)N(C)C[C@H]2OCc3ccccc3-c3ccccc3C(=O)N([C@H](C)CO)C[C@@H]2C)c(OC)c1
-1 | CCCN1C[C@@H](C)[C@H](OC)CN(C)C(=O)c2ccc(NC(=O)c3ccc4c(c3)OCO4)cc2OC[C@H]1C
21 | COc1ccc(S(=O)(=O)N2CC[C@@H]3[C@@H](CO)Nc4ccc(-c5ccc(C#N)cc5)cc4[C@@H]32)cc1
26 | C[C@H](CO)N1C[C@H](C)[C@@H](CN(C)C(=O)Nc2ccc3c(c2)OCO3)Oc2ccc(NS(=O)(=O)c3cccs3)cc2C1=O
-8 | CCCNC(=O)[C@H]1[C@H](CO)[C@H]2Cn3c(ccc(-c4ccncc4)c3=O)[C@H]2N1C(=O)c1ccccc1F
-1 | COCC(=O)N1[C@@H](CO)[C@@H](c2ccccc2)[C@@H]1CNC(=O)c1ccccn1

# Some of the entries above in a different format:
Compound	UUG fidelity
O=C(C[C@@H]1CC[C@H]2[C@@H](COC[C@H](O)CN2Cc2ccncc2)O1)NCc1ccncc1	-9
Cc1cccc(S(=O)(=O)N2CCCCN3[C@H](CO)[C@@H](c4ccc(-c5ccccc5)cc4)[C@@H]3C2)c1	-2
COCC(=O)Nc1ccc2c(c1)C(=O)N(C)C[C@H](OC)[C@@H](C)CN(C(=O)c1ccncc1)[C@H](C)CO2	-6
CCC(=O)N1CC[C@@H]2[C@H](CO)Nc3ccc(-c4ccccc4)cc3[C@@H]21	-11
COCC(=O)N1[C@@H](CO)[C@@H](c2ccccc2)[C@@H]1CNC(=O)c1ccccn1	-1

# Part of the list above in order of length of the SMILES, ascending.
UUG fidelity | Molecule
6 | CCCC#Cc1ccc([C@@H]2[C@@H](CO)N3CCCCN(Cc4ccncc4)C[C@@H]23)cc1
-3 | O=S(=O)(Cc1ccccc1)N1CCCCN2[C@@H](CO)[C@@H](c3ccc(-c4ccccc4)cc3)[C@@H]2C1
-1 | CCCN1C[C@@H](C)[C@H](OC)CN(C)C(=O)c2ccc(NC(=O)c3ccc4c(c3)OCO4)cc2OC[C@H]1C

# Returning to the listing; the 2 compounds before the break are reprinted first.
UUG fidelity | Molecule
-8 | CCCNC(=O)[C@H]1[C@H](CO)[C@H]2Cn3c(ccc(-c4ccncc4)c3=O)[C@H]2N1C(=O)c1ccccc1F
-1 | COCC(=O)N1[C@@H](CO)[C@@H](c2ccccc2)[C@@H]1CNC(=O)c1ccccn1
-1 | C[C@@H]1CN([C@H](C)CO)C(=O)c2cccc(NC(=O)C3CC3)c2O[C@@H]1CN(C)S(=O)(=O)c1ccc(Cl)cc1
-5 | Cc1ccc(S(=O)(=O)N(C)C[C@@H]2Oc3ccc(N(C)C)cc3C(=O)N([C@H](C)CO)C[C@H]2C)cc1
1 | CCCNC(=O)N1[C@@H](CO)[C@H](c2ccccc2)[C@@H]1CNC(C)=O
-8 | Cc1cccc(S(=O)(=O)N2C[C@H]3[C@@H](c4ccccc42)[C@@H](CO)N3CC2CCOCC2)c1
-16 | O=C(c1ccccn1)N1C[C@@H]2[C@H](c3ccccc31)[C@H](CO)N2C(=O)CC1CC1
-10 | COc1ccc(C#Cc2ccc3c(c2)[C@@H]2[C@@H](CCN2C(=O)c2ccccc2F)[C@@H](CO)N3C)cc1
8 | CCCNC(=O)N1[C@H](CO)[C@@H](c2ccccc2)[C@H]1CNC(=O)c1ccc(F)cc1
26 | O=C(c1ccncc1)N1CCCCN2[C@H](C1)[C@H](c1ccc(C#Cc3ccccn3)cc1)[C@@H]2CO
7 | CCC(=O)N1CC[C@H]2[C@@H]1c1cc(-c3cccc(F)c3)ccc1N(C)[C@H]2CO
67 | CCOc1cc(N2CCOCC2)c(OCC)cc1NC(=O)CN1C(=O)NC(C)(c2ccc(OC)cc2)C1=O (stereo unspecified)
-5 | CO[C@@H]1CN(C)C(=O)c2ccc(NC(=O)c3cc(C)on3)cc2OC[C@@H](C)N(S(=O)(=O)c2cccc(C)c2)C[C@H]1C
2 | CO[C@H]1CN(C)C(=O)c2ccc(NS(=O)(=O)c3ccccc3)cc2OC[C@H](C)N(C(=O)NC(C)C)C[C@H]1C
-13 | CC(C)NC(=O)Nc1cccc2c1O[C@H](CN(C)CC1CC1)[C@@H](C)CN([C@@H](C)CO)C2=O
-4 | COc1ccc(S(=O)(=O)Nc2ccc3c(c2)CC(=O)N([C@H](C)CO)C[C@@H](C)[C@H](CN(C)Cc2ccncc2)O3)cc1
-4 | CN(C)C(=O)c1ccc(-c2ccc([C@@H]3[C@@H](CO)N4CCCCN(CCC(F)(F)F)C[C@H]34)cc2)cc1
10 | O=C(NC1CCCC1)[C@@H]1[C@@H](CO)[C@@H]2Cn3c(ccc(C4=CCCC4)c3=O)[C@H]1N2CC1CC1
-3 | CCCC(=O)Nc1ccc2c(c1)C(=O)N(C)C[C@H](OC)[C@@H](C)CN(C(=O)CN(C)C)[C@@H](C)CO2
11 | O=C(NCC1CC1)[C@@H]1[C@@H](CO)[C@@H]2Cn3c(ccc(/C=C/c4ccccc4)c3=O)[C@H]1N2C(=O)C1CC1
39 | O=C(c1cccnc1)N1C[C@@H]2[C@H](c3ccccc31)[C@H](CO)N2Cc1ccc2c(c1)OCO2
-10 | C[C@@H]1CN([C@@H](C)CO)C(=O)c2cccc(NC(=O)c3cnccn3)c2O[C@H]1CN(C)Cc1ccncc1
39 | O=C(C[C@@H]1CC[C@@H]2[C@H](COC[C@H](O)CN2Cc2cccc(C(F)(F)F)c2)O1)NCCc1ccccc1
4 | O=C(C1CCCC1)N1CCCCN2[C@H](CO)[C@@H](c3ccc(C#CC4CC4)cc3)[C@@H]2C1
5 | CO[C@@H]1CN(C)C(=O)c2cc(NC(=O)C3CC3)ccc2OC[C@@H](C)NC[C@@H]1C
5 | COc1ccc(S(=O)(=O)N(C)C[C@H]2Oc3c(NC(=O)C4CCOCC4)cccc3C(=O)N([C@@H](C)CO)C[C@H]2C)cc1
-1 | C[C@@H]1CN([C@@H](C)CO)C(=O)CCCn2cc(nn2)CO[C@H]1CN(C)Cc1ccccc1C(=O)O
-12 | CCC(=O)NC[C@@H]1[C@@H](c2ccc(C3=CCCC3)cc2)[C@@H](CO)N1C(=O)C1CC1
-7 | COCC(=O)NC[C@@H]1[C@@H](c2ccc(C3=CCCC3)cc2)[C@H](CO)N1C(C)=O
4 | N#Cc1cccc(-c2ccc3c(c2)[C@H]2[C@H](CCN2S(=O)(=O)c2ccccc2)[C@H](CO)N3)c1
26 | C[C@H]1CN([C@@H](C)CO)C(=O)Cc2cc(NC(=O)Cc3cn(C)c4ccccc34)ccc2O[C@@H]1CN(C)S(C)(=O)=O
-6 | CCC(=O)N1[C@H](CO)[C@H](c2ccc(-c3ccccc3)cc2)[C@H]1CN(CC)C(C)=O
-8 | C[C@@H]1CN([C@@H](C)CO)C(=O)CCCn2nncc2CO[C@H]1CN(C)C(=O)Nc1cccc(F)c1
1 | Cn1cnc(S(=O)(=O)N2CCCCN3[C@H](CO)[C@H](c4ccc(C#CC5CCCC5)cc4)[C@@H]3C2)c1
8 | COc1ccc(S(=O)(=O)N(C)C[C@@H]2Oc3c(NC(=O)NC4CCCCC4)cccc3C(=O)N([C@@H](C)CO)C[C@@H]2C)cc1
5 | C[C@H]1CN([C@@H](C)CO)C(=O)c2cccc(NC(=O)Nc3cccc4ccccc34)c2O[C@H]1CN(C)Cc1ccc(C(F)(F)F)cc1
1 | CCCC#Cc1ccc([C@H]2[C@H]3CN(S(=O)(=O)CC)CCCCN3[C@H]2CO)cc1
-5 | C[C@@H](O)C#Cc1ccc([C@H]2[C@@H](CO)N3CCCCN(C(=O)c4cccc(F)c4)C[C@@H]23)cc1
-13 | CCC(=O)N(CC)C[C@H]1[C@H](c2ccccc2)[C@@H](CO)N1C(C)=O
-9 | Cc1ccc(S(=O)(=O)Nc2ccc3c(c2)C(=O)N([C@@H](C)CO)C[C@H](C)[C@H](CN(C)Cc2ccncc2)O3)cc1
11 | CCCN1C[C@@H](C)[C@H](OC)CN(C)C(=O)c2ccc(NC(=O)c3cccc(F)c3)cc2OC[C@@H]1C
-14 | COCC(=O)Nc1ccc2c(c1)[C@H]1C[C@H](CC(=O)OC)O[C@@H](CO)[C@H]1O2
-7 | Cc1noc(C)c1NC(=O)N(C)C[C@H]1Oc2ccc(NS(=O)(=O)c3cn(C)cn3)cc2C(=O)N([C@H](C)CO)C[C@H]1C
12 | CC(C)(O)C#Cc1ccc([C@H]2[C@H]3CN(S(C)(=O)=O)CCCCN3[C@H]2CO)cc1
-1 | C[C@@H]1CN([C@@H](C)CO)C(=O)Cc2cc(NS(=O)(=O)c3ccc(F)cc3)ccc2O[C@@H]1CN(C)CC1CC1
12 | COc1ccc(CN(C)C[C@H]2Oc3ccc(NS(=O)(=O)c4ccccc4)cc3C(=O)N([C@@H](C)CO)C[C@H]2C)cc1
-14 | C/C=C/c1ccc([C@H]2[C@@H](CO)N(C(C)=O)[C@@H]2CNC(=O)c2ccncc2)cc1
6 | O=C([C@H]1[C@H](CO)[C@H]2Cn3c(ccc(-c4ccccc4F)c3=O)[C@@H]1N2C(=O)C1CC1)N1CCCCC1
6 | CO[C@@H]1CN(C)C(=O)c2ccc(NC(C)=O)cc2OC[C@H](C)N(C(=O)CN2CCOCC2)C[C@H]1C
5 | C[C@H]1CN([C@@H](C)CO)C(=O)c2cc(NC(=O)Nc3ccc(F)cc3)ccc2O[C@@H]1CN(C)S(=O)(=O)c1cccs1
16 | CC(C)C#Cc1ccc([C@H]2[C@@H](CO)N3CCCCN(CC4CC4)C[C@@H]23)cc1
-12 | Cc1cccc(S(=O)(=O)N2C[C@@H](O)COC[C@@H]3O[C@H](CC(=O)NCc4ccncn4)CC[C@H]32)c1

# Other entries.
UUG fidelity | Molecule
-1 | COc1ccc(NC(=O)N(C)C[C@H]2Oc3ccc(NS(=O)(=O)c4c(C)noc4C)cc3C(=O)N([C@@H](C)CO)C[C@@H]2C)cc1
12 | O=C(Nc1ccc(F)cc1)N1CCCCN2[C@@H](CO)[C@H](c3ccc(C#CC4CC4)cc3)[C@@H]2C1
-3 | C[C@H](CO)N1C[C@H](C)[C@@H](CN(C)S(=O)(=O)c2cccs2)Oc2ccc(NC(=O)CCCCCC(=O)Nc3ccccc3N)cc2C1=O
14 | C[C@@H]1CN([C@H](C)CO)C(=O)c2cc(NC(=O)Cn3cnnn3)ccc2O[C@@H]1CN(C)Cc1ccc(Oc2ccccc2)cc1
-11 | CCC(=O)N(C)C[C@H]1[C@H](c2ccc(-c3ccccc3F)cc2)[C@@H](CO)N1C(C)=O
-3 | O=C(c1cccnc1)N1C[C@@H]2[C@H](c3ccccc31)[C@H](CO)N2CC1CCCC1
-21 | CN1CCN(C(=O)C[C@H]2C[C@H]3c4cc(NC(=O)CC5CC5)ccc4O[C@H]3[C@@H](CO)O2)CC1
6 | CC(C)NC(=O)Nc1ccc2c(c1)C(=O)N([C@H](C)CO)C[C@@H](C)[C@H](CN(C)Cc1ccc(Oc3ccccc3)cc1)O2
-6 | CCN(C[C@@H]1N[C@@H](CO)[C@@H]1c1ccc(C2=CCCC2)cc1)C(=O)c1cccnc1
-4 | CO[C@@H]1CN(C)C(=O)c2cc(NC(=O)C3CCC3)ccc2OC[C@H](C)N(C(=O)CN(C)C)C[C@@H]1C
-12 | CC=Cc1ccc2n(c1=O)C[C@H]1[C@H](CO)[C@@H](C(=O)NCc3ccncc3)N(Cc3cncnc3)[C@@H]21 (mixture of isomers)
